# A647 autofl = compound fluoresces in the A647 spectral region. Compound fluorescence, A647 channel (570/671 nm), Tris buffer. max dye-equivalent concentration, M. 59,000 tested, under 10 active. AID 592; active means above 1 µM dye equivalent; inconclusive means 0.1 to 1 µM; inactive means 0.1 µM or less;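 note: values scaled relative to a standard on each plate; highest value over a series up to 38 µM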
#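 Compounds pinned into 100 mM Tris pH 8.0, 15 min at room temperature, then read with 570 nm excitation/671 nm emission filters. Fluorescence normalized to an on-plate six-point Alexa 647 standard curve, giving dye-equivalent concentration per compound concentration.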
# AID923 = qHTS Assay for Allosteric/Competitive Inhibitors of Caspase-1: Spectroscopic Profiling in AFC Spectral Region; compound fluorescence, AFC spectral region (405/520 nm); almost no hit is shown here; Potency, µM (titrated, usually from 57.5 µM), inactives show at the top dose fluorescence increase, most hits filed as activators; hit rate 1.1% among 75,000; active = well fitted activation curve with a large enough effect; inconclusive = small, poorly fitted or top-dose-only effect;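 note: potency is the fitted concentration of half-maximal effect; 0% is about no effect; scaled to a free AFC standard on each plate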
#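 Titrations up to 57 uM read every 20 sec for 3 min (405/520 nm) with 50 nM caspase 1 and 5 uM Ac-WEHD-AFC, pH 7.5 HEPES buffer. Fluorescence-vs-time intercept gave baseline, scaled against on-plate AFC standard.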
# Resorufin autofl = resorufin region autofluorescence; Compound fluorescence, resorufin region 547/598 nm, buffer; active compounds read high; AID 588; max dye-equivalent concentration, M; hit rate 0.04% among 59,000; active = above 10 nM dye equivalent; inconclusive = 1 to 10 nM; inactive = 1 nM or less; a few of its hits are not listed in these tables; note: highest value over a series up to 38 µM
#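 Tris 100 mM pH 8.0; compound added, 15 min RT; CCD imager read, ex 547 nm/em 598 nm; signal normalized to resorufin standard curve (six concentrations per plate) as dye-equivalent concentration.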
# A488 fluor = compound fluoresces in the A488 spectral region. compound autofluorescence, A488 spectral region, dye equivalency; active compounds read high. max dye equivalency, M. hit rate 0.1% among 59,000; active = above 10 nM dye equivalent; inconclusive = 1 to 10 nM; inactive = 1 nM or less; about half of its hits are not listed in these tables;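 note: highest value over a series up to 38 µM; compound alone in buffer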
#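 Compound autofluorescence was read in 100 mM Tris pH 8.0 after 15 min at room temperature, ex 480 nm/em 540 nm. Intensities were converted to A488 dye-equivalent concentration using an on-plate six-point A488 standard curve.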
# TSHR ag = activates the human thyroid stimulating hormone receptor; P16473; Potency, µM (doses to about 57.1 µM), inactives show top-dose activation, hits mostly activators; HEK293-CNG-TSHR cells (CNG channel as cAMP sensor), membrane potential dye, cAMP; hit rate 0.48% among 73,000; active = well fitted activation curve of enough size with the parental cells flat; inconclusive = any curve in the parental cells; inactive = parental cells flat and receptor cells flat or falling; note: potency is the fitted concentration of half-maximal effect; % of control where 0% means no effect; weak receptor curves with flat parental cells got no call and are not listed
# Target sequence (P16473 whole entry, looked up): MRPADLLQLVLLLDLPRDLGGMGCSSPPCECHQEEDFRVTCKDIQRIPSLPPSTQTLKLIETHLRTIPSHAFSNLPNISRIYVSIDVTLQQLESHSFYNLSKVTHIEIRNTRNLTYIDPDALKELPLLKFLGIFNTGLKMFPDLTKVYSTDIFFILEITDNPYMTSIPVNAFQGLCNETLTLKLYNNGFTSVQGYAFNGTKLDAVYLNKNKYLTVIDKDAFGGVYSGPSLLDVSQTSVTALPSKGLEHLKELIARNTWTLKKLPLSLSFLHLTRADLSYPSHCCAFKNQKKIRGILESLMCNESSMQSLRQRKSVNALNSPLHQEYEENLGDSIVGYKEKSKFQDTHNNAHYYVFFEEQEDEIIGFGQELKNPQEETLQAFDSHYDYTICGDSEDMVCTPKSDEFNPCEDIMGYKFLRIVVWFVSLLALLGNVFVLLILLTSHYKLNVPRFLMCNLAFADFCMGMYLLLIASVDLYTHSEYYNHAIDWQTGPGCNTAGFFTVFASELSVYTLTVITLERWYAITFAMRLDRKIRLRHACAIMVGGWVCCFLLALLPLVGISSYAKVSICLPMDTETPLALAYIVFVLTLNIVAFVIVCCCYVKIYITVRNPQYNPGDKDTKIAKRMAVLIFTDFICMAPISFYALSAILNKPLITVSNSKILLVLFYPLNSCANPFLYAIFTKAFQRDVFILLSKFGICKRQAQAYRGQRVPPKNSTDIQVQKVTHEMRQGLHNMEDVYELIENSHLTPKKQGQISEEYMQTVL
#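 HEK 293 cells stably expressing TSHR and a modified CNG channel, with CNG-only parental cells as counterscreen, were preloaded 60 min at room temperature with membrane potential dye containing 100 uM RO 20-1724. Compound exposure was 30 min, and depolarization was read as fluorescence at 590 nm.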
# Numbers without * were called inactive; i = inactive; ? = inconclusive; . = no result given; [ ] = another dose, or the depositor's remark. Some of the compounds tested. The share of hits here may be higher or lower than overall.
SMILES,A647 autofl,AID923,Resorufin autofl,A488 fluor,TSHR ag
COC(=O)C1C(C)OC(=O)NC1c1ccccc1 (centres undefined),.,-2.0%[11.5 µM],.,.,-3%[11.4 µM]
Cc1cccc(C2c3c(n(C)c(=O)n(C)c3=O)N=C3c4ccccc4C(=O)C32)c1 (centres undefined),2.6e-08,-0.7%,i,i,-10%
CCC1Oc2ccccc2N(CC(=O)NCCN2CCc3ccccc3C2)C1=O (centres undefined),1.6e-08,-0.6%,i,i,.
CCCCOc1nc(N)nc(-c2ccccc2)n1,8e-08,0.1%,i,i,1%
c1ccc(CNc2ncnc3ccc(-c4ccoc4)cc23)cc1,4.7e-08,3.7%,i,i,-5%
CCC1CCCCN1CCCNC(=O)CC1Oc2ccccc2NC1=O (centres undefined),.,2.8%,.,.,1%
O=c1cc(-c2ccccc2)oc2cc(O[C@H]3O[C@H](CO)[C@@H](O)[C@H](O)[C@@H]3O)c(O)c(O)c12,1.4e-08,.,i,i,0%
Cc1noc(C)c1C(=O)N1CCC2(CC1)CN(C(=O)Nc1cccc(F)c1)C2,3.2e-08,-0.5%,i,i,3%
O=C(c1cc2ccccc2o1)c1cccs1,2.5e-08,2.9%,i,i,6%
COc1ccc(CC(=O)Nc2nncs2)cc1OC,1e-09,-0.3%,i,i,8%[11.4 µM]
Cc1cc(-n2c(C)cc(C(=O)CSc3ccc4c(c3)OCCO4)c2C)no1,1e-09,1.4%,i,i,?
NC[C@@H]1O[C@@H](O[C@H]2[C@H](O)[C@H](O[C@@H]3O[C@H](CO)[C@@H](O)[C@H](N)[C@@H]3O)[C@@H](N)C[C@H]2N)[C@H](N)C[C@@H]1O,5.7e-09,1.3%[25.7 µM],i,i,11%[25.6 µM]
CNC(=O)CSCCn1c(SCC(=O)NC)nc2ccccc2c1=O,1.3e-08,-1.0%,i,i,-3%[11.4 µM]
C=C(C)COc1ccc(-c2n[nH]c(C)c2Oc2ccccc2OC)c(O)c1,3e-08,-0.1%,i,i,14%
CC(c1ccccc1)C1CC(=O)N(Cc2ccco2)C1=O (centres undefined),1.5e-09,1.5%,i,i,6%
Cc1cc(C)nc(N2CCCC(C(=O)Nc3nnc(C)s3)C2)n1 (centres undefined),1e-09,1.1%,i,i,7%
COc1ccc(NCc2ccc(OC)c(OC)c2)cc1,.,2.5%,.,.,16%
Cc1oc(C)c2c(=O)ccc3c(c12)OC(N)=C(C#N)C3c1ccccc1 (centres undefined),1e-09,15%,i,i,20%
CCOc1ccccc1C(=O)NCC(=O)OCC(=O)NCCc1ccc(S(N)(=O)=O)cc1,5.3e-09,-0.1%,i,i,3%
CCOC(=O)C1CCN(Cc2ccc(OC)cc2OC)CC1,.,-0.6%,.,.,6%
Cc1ccccc1-n1c(Cn2c(=O)sc3ccccc32)nnc1SC(C)C,.,-2.5%,.,.,24%
COc1cc2[nH]c3c(=O)n(CCN4CCCCC4)cnc3c2cc1OC,2.4e-08,0.8%,i,i,-7%
CCCCNC(=O)CCn1c(=O)c2ccccc2n(CC(=O)N2CC(C)CC(C)C2)c1=O (centres undefined),1e-09,-2.3%,i,i,20%[11.4 µM]
Cc1ccc(S(=O)(=O)N(CC(=O)O)Cc2ccccc2)cc1,3e-09,-0.5%,i,i,7%
O=C(c1csc2c1CCCC2)N1CCCCC1,.,0.5%,.,.,9%
Cc1ccc(N2C(=O)C3C4C=CC(C4)C3C2=O)cc1 (centres undefined),1e-08,0.5%,i,i,-3%
CCN1CCC[C@@H]1CNC(=O)c1c(O)c(Cl)cc(Cl)c1OC,1.1e-09,-1.6%,i,i,5%
Cc1ccc(NC(=O)CN(C)S(=O)(=O)c2cnc[nH]2)cc1C,2e-08,1.6%,i,i,13%
COc1ccc(Oc2ncc3nc(-c4cc(F)cc(F)c4)c(=O)n(C)c3n2)cc1,3.3e-09,0.3%,i,i,-2%
CC(=O)Nc1c(C(=O)c2ccc(F)cc2)oc2ccccc12,2.9e-08,3.0%,i,i,2%
Cc1nnc(SCC(=O)N2CCN(Cc3ccccc3)CC2)s1,1e-09,0.1%,i,i,2%
Cc1c(C(=O)Nc2ccc(C(=O)O)cc2)cnn1C,3.2e-09,-0.2%,i,i,-2%
CC(C)(C)C1CCC2(CC1)CCN(CCCN1CCOCC1)CC2,1e-09,-0.1%[11.5 µM],i,i,15%[11.4 µM]
O=S1(=O)CC(O)C(Nc2ccccc2Cl)C1 (centres undefined),.,0.0%,.,.,-1%
O=C(Nc1ccccc1)N(Cc1cccnc1)Cc1ccco1,3.8e-08,-1.8%,i,i,12%
Cc1ccccc1-c1nnn(CC(=O)NCc2ccc3c(c2)OCO3)n1,1.7e-09,-0.1%,i,i,21%
CCOC(=O)C(O)(C1C(=O)CC(C)(C)CC1=O)C(F)(F)F (centres undefined),1e-09,.,i,i,.
CCCCCn1c(N2CCOCC2)nc2c1c(=O)n(CC(N)=O)c(=O)n2C,1.3e-08,0.7%,i,i,-12%
CCc1ccc(C2=Nn3c(nnc3-c3cccs3)SC2)cc1,1e-09,0.3%,i,i,?
C#CCCCO/N=C1/C[C@@H](O)[C@@H](O)[C@@H]2[C@@H]3C(=O)N(c4cccc(Oc5ccccc5)c4)C(=O)[C@H]3CC[C@H]12,.,-2.1%[11.5 µM],.,.,-1%[11.4 µM]
CC(C)(C)n1nnnc1C(c1ccc(C#N)cc1)N1CCCC2(CCCCC2)C1 (centres undefined),6.3e-09,2.4%,i,i,?
COc1cc2c(cc1OC)-c1cc(NCc3ccccn3)nc(=O)n1CC2,1e-09,3.1%,i,i,7%
CC(=O)c1sc(Nc2ccccn2)nc1C,1e-09,-2.4%,i,i,-12%
O=S(=O)(c1ccc2nc(Cc3ccccc3)[nH]c2c1)N1CCOCC1,2.1e-08,-1.9%,i,i,1%
Cc1cc(C)n(-c2ncc(-c3ccccc3)nn2)n1,.,-1.3%,.,.,-4%
Cc1ccc(S(=O)(=O)c2nc(-c3ccccc3)oc2NCCN2CCOCC2)cc1,5.1e-09,-2.5%,i,i,19%
CCOc1ccc(C2c3c(oc4cc(C)c(C)cc4c3=O)C(=O)N2CCCN(C)C)cc1OC (centres undefined),.,1.8%,.,.,?
Cc1cc(C)n(-c2ccc(C(=O)NCc3cccs3)cc2)n1,1e-09,0.8%,i,i,1%
COc1ccc(C2C(C(=O)O)c3ccccc3C(=O)N2C)cc1Br (centres undefined),1.7e-08,-0.5%,i,i,3%[11.4 µM]
CC1(C)CC(=O)c2cc(C(=O)NC3CCSC3=O)c(=O)n(-c3ccccc3)c2C1 (centres undefined),1.5e-09,0.6%,i,i,?
COc1ccc(-n2c(N)c(C(=O)NCC3CCCO3)sc2=S)cc1 (centres undefined),4.7e-08,-1.2%,i,i,4%
C/C(Cl)=C\Cn1c(NCCc2ccccc2)nc2c1c(=O)n(C)c(=O)n2C,4.1e-08,4.1%,i,i,-9%
Cc1cc(Oc2ccc(-c3ccccc3)cc2)nc(N2CCOCC2)n1,4.3e-08,-0.5%,i,i,?
COc1ncc2ncc(=O)n(Cc3cccs3)c2n1,2.7e-08,-0.5%,i,i,?
Cc1cc(C)nc(SCC(=O)Nc2ccc(Br)cn2)n1,1.6e-08,1.7%,i,i,4%
O=C(Cn1c(=O)oc2cc(S(=O)(=O)N3CCCC3)ccc21)NC1CCCc2ccccc21 (centres undefined),.,-2.8%,.,.,-21%
NC1=NC(c2ccc(F)cc2)n2c(nc3ccccc32)N1 (centres undefined),1.2e-08,-0.7%,i,i,5%
COc1ccc(C2CC(=O)C3=C(C2)Nc2ncnn2C3c2ccccc2C)c(OC)c1 (centres undefined),4.2e-08,-2.7%,i,i,4%
COCC(=O)N1CCC2(CC1)CCN(c1ccc(-c3ccccc3)cc1)CC2,2.7e-08,2.0%,i,i,3%
CC(=O)N=C1SC2CS(=O)(=O)CC2N1c1ccccc1Cl (centres undefined),3.1e-08,1.0%,i,i,3%

# Continued.
SMILES,A647 autofl,AID923,Resorufin autofl,A488 fluor,TSHR ag
O=C(NCCN1CCc2ccccc2C1)Nc1ccc(F)cc1,.,2.0%,.,.,-2%
O=C(C1CC(c2ccccc2O)=NO1)N1CCCC1 (centres undefined),3.5e-08,1.0%,i,i,0%
CCS(=O)(=O)N1CCC(C(=O)NCc2ccc(F)cc2Cl)CC1,4.4e-08,2.4%,i,i,-3%[11.4 µM]
COC(=O)[C@@]1(Cc2ccc(OC)cc2)[C@H]2c3cc(C(=O)N4CCCC4)n(CCF)c3C[C@H]2CN1C(=O)c1ccccc1,.,1.4%,.,.,?
CCC[C@H](Sc1nc(N)nc2nc[nH]c12)C(=O)O,2.5e-09,-1.9%[11.5 µM],i,i,6%[11.4 µM]
CCOCCCn1c(=S)[nH]c2cc(C(=O)NCCOC)ccc2c1=O,2e-08,-0.3%,i,i,?
CN1CCN(c2ncnc3ccc(-c4ccoc4)cc23)CC1,3.3e-08,1.3%,i,i,11%
CCCc1nnc(NC(=O)c2c(O)c3c([nH]c2=O)CCCC3)s1,2.3e-08,.,i,i,.
Cc1ccc(C2CC(c3cccs3)n3nc(N)nc3N2)cc1 (centres undefined),1e-09,.,i,i,.
Cc1ccc(N2CCN(C(=O)N3CCCC3)CC2)cc1Cl,8.9e-09,1.2%,i,i,14%
Oc1ccccc1-c1cc(C(F)(F)C(F)F)nc(-c2ccccc2)n1,9.9e-09,-1.0%,i,i,?
C/C=C/C=[N+](\[O-])C(C)/C(=N/O)c1ccc(F)cc1 (centres undefined),3.2e-09,1.2%,i,i,-2%
CSc1nc(NC2CCCC2)c([N+](=O)[O-])c(NC2CCCC2)n1,.,-0.7%,.,.,23%
Cc1cccc2cc(CN(CC3CCCO3)C(=O)c3cccnc3)c3nnnn3c12 (centres undefined),8.3e-09,1.0%,i,i,1%
Cc1c(NC(=O)Nc2ccc3c(c2)OCO3)c(=O)n(-c2ccccc2)n1C,9.7e-09,4.4%,i,i,0%
CCCc1nc(SCC(=O)Nc2ccccc2OC)c2c(=O)n(C)c(=O)n(C)c2n1,.,-0.3%,.,.,?
O=C(CSc1nnc(-c2ccco2)n1Cc1ccccc1)NC(=O)NCc1ccco1,2.5e-08,0.1%,i,i,?
COC(=O)C1C2C=CC3(CN(c4ccc(Cl)c(F)c4)C(=O)C13)O2 (centres undefined),.,-0.8%,.,.,-3%
O=C(CSc1nnnn1-c1ccc2c(c1)OCCO2)OC1CCCCC1,8.5e-09,-1.3%,i,i,?
Cc1cc(OCC(=O)N2CCCC2)ccc1Cl,.,-2.9%,.,.,8%[11.4 µM]
OCCN(Cc1ccccc1)Cc1ccccc1F,1e-09,-4.3%,i,i,16%

# Source: PubChem
